gsp antagonist: qHTS for Antagonists of gsp, the Etiologic Mutation Responsible for Fibrous Dysplasia/McCune-Albright Syndrome: qHTS; gsp-mutant cells, cAMP HTRF, 30 min; control for the full effect not named in the record; Potency, µM (doses to about 76.9 µM), inactives show at the highest dose activity change, negative = inhibition, most hits filed as inhibitors; 340,000 tested, 0.4% active; AID 624288, 2012; active = falling curve of any shape with a large fitted effect; inconclusive = falling curve, mostly with a smaller effect; inactive = flat or rising curve; cell line not stated here;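 note: intracellular cAMP measured with PDE inhibitor Ro 20-1724 present during compound exposure; potency is the fitted concentration of half-maximal effect; % is set by controls: 0 for no effect and ±100 for the full control effect; nearly all actives have a fitted effect of over 65% in size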
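Cells, 2000/well, grown 16–24 h in DMEM 10% FBS with 0.5 mg/ml G418, then compounds plus […] (300 uM addition stock), 30 min at 37C. cAMP read by HTRF (cAMP-d2 and anti-cAMP antibody-K in lysis buffer) after 30 min RT.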
ClpP mod: qHTS Assay for Activators of ClpP. purified B. subtilis ClpP, FRET peptide cleavage, 20 min. ATP-dependent Clp protease proteolytic subunit (Bacillus subtilis (strain 168)), P80244. AID 651965, 2013. Potency, µM (doses to about 57.5 µM), for inactives: at the highest dose activity change, negative = active. 340,000 tested, 1.9% active; active = well fitted falling curve with a large enough effect; inconclusive = small, poorly fitted or top-dose-only effect; inactive = no such curve, though single readings can be large or run the other way; note: potency is the fitted concentration of half-maximal effect; the source files actives as falling curves though it sought activators and does not explain the sign; nearly all actives have a fitted effect of over 65% in size; many hits overshoot -100%
Target sequence (P80244 whole entry, looked up): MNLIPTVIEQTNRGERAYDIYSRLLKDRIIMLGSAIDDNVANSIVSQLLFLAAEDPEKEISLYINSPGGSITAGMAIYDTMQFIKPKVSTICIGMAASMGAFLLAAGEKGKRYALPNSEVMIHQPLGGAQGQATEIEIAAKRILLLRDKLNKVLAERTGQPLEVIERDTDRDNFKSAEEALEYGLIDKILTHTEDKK
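ClpP 10 microg/mL final, pH 8 Tris/KCl buffer with BSA, glycerol, Tween-20; compound pinned in; FRET-FV substrate; RT 20 min; Ex320/Em430; ΔFRET vs ADEP 5.8 microM, DMSO, no enzyme.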
D2 ag: Beta-Arrestin HTS for Positive Allosteric Modulators of the Human D2 Dopamine Receptor: Agonists; D(2) dopamine receptor (Homo sapiens), P14416; AID 624465, 2012; activation, % (test concentration not listed); 360,000 tested, 0.084% active; DiscoveRx PathHunter D2 beta-arrestin, luminescence, 90 min; 100% = 57 uM dopamine signal; in the data active = activation above about 40%; inconclusive = about 15% to 40%; inactive = below about 15%; note: compound concentration not given in the record; the text of the record calls up to 30% inactive
Target sequence (P14416 whole entry, looked up): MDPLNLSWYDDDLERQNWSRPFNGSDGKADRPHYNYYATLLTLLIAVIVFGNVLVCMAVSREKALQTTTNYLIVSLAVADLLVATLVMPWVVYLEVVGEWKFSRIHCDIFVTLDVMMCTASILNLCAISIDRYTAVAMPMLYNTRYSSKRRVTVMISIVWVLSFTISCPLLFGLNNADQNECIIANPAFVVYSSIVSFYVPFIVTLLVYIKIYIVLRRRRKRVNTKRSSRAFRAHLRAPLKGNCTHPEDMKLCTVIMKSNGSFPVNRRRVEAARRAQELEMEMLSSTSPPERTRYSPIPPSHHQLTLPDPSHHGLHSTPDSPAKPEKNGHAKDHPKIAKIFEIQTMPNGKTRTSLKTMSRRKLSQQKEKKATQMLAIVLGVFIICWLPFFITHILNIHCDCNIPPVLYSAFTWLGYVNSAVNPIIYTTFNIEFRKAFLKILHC
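Agonist mode: compounds alone added to overnight-plated D2 PathHunter cells for 90 min at 37 C, with 57 uM final dopamine (EC100) defining full response. Beta-arrestin recruitment detected by chemiluminescent reagent, read after 1 h at ambient temperature.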
Sfp PPTase inh: qHTS Assay for Inhibitors of Bacillus subtilis Sfp phosphopantetheinyl transferase (PPTase) | Biochemical Sfp PPTase activity, qHTS | 310,000 tested, 3.5% active | Potency, µM, without a hit: max response, negative = inhibition, hits mostly inhibitors | AID 1490, 2009; active = well fitted inhibition curve with a large enough effect; inconclusive = small, poorly fitted or top-dose-only effect, or another doubt; inactive = no such curve, though single readings can be large or run the other way;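 note: the enzyme is Sfp with the accession as filed and its product quenches rhodamine fluorescence; potency is the fitted concentration of half-maximal effect; 0% = enzyme reaction without inhibitor and -100% = no enzyme wells; top concentration of the series not given in the record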
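After 15 min at room temperature with compound, 15 nM Sfp received 5 uM rhodamine-CoA plus 12.5 uM BHQ-2-ybbR (50 mM Hepes pH 7.6, 10 mM MgCl2). Rate came from the fluorescence difference over 30 min, ex 525/em 598 nm.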
gsp ag: qHTS for Agonist of gsp, the Etiologic Mutation Responsible for Fibrous Dysplasia/McCune-Albright Syndrome: qHTS; gsp mutant cells, cAMP HTRF, 30 min; control for the full effect not named in the record; Potency, µM (doses to about 76.9 µM), for inactives: top-dose activation (cAMP increase), usual class: activators; 340,000 tested, 0.13% active; AID 624287, 2012; active = well fitted activation curve with a large enough effect; inconclusive = small, poorly fitted or top-dose-only effect, or another doubt; inactive = no such curve, though single readings can be large or run the other way; cell line not stated here;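 note: phosphodiesterase inhibitor Ro 20-1724 added with compounds to block cAMP breakdown; potency is the fitted concentration of half-maximal effect; nearly all actives have a fitted effect of over 60% in size; about a fifth of the inactives were tested at one dose only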
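Cells stably selected in G418 were plated at 2000/well, grown 16-24 hr, then given compounds in DMSO with the PDE inhibitor […] (300 uM solution added) for 30 min at 37C; cAMP was read by HTRF.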
Menin-MLL FL inh: qHTS Assay for Inhibitors Targeting the Menin-MLL Interaction in MLL Related Leukemias: Competition With Fluorescein Labeled MLL-derived Peptide; FP activity change, % at 61.4 µM; 290,000 tested, under 10 active; Fluorescence polarization, fluorescein-MLL peptide displacement from menin; inconclusive = falling polarisation curve, or a change in total fluorescence; inactive = total fluorescence flat and polarisation flat or rising; no compound was filed as active; the % refers to the polarisation; negative = inhibition;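 note: % of control where 0% means no effect; inhibitors lower the polarisation; unlabelled MLL peptide was the positive control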
PINK1 expr mod: A Quantitative High throughput Screen to Identify Chemical Modulators of PINK1 Expression | PINK1 immunofluorescence, high-content cytometry, 24 h | Potency, µM (titrated, usually from 76.6 µM), without a hit: at the top dose activation (PINK1 increase), most hits filed as activators | 410,000 tested, 0.2% active; active = well fitted activation curve with a large enough effect; inconclusive = small, poorly fitted or top-dose-only effect; inactive = flat fitted curve, though single readings scatter; cell line not stated here;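 note: potency is the fitted concentration of half-maximal effect; % of control where 0% means no effect; nearly all actives have a fitted effect of over 65% in size; a mitochondrial uncoupler was the plate control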
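Measures PINK1 amount and localization on or inside mitochondria by immunofluorescence. Stable cells get compounds at 5 concentrations for 24 hours before fixation and staining; CCCP controls included.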
Starred values were filed as active, the others as inactive; ? = inconclusive; nt = no result given; & = joins results of further samples; [ ] = dose if it differs, or a comment.

SMILES	gsp antagonist	ClpP mod	D2 ag	Sfp PPTase inh	gsp ag	Menin-MLL FL inh	PINK1 expr mod
Cc1ccccc1NC(=O)CSc1ccc2nnc(-c3ccccn3)n2n1	-1%	-8.3%	-18	11%	19%	nt	1.0%
CN(C)CCN1C(=O)c2oc3ccccc3c(=O)c2C1c1ccc(F)cc1 (centres undefined)	-15%	-0.8%	-1.8	9%	?	1.0	4.9%[38.3 µM]
Cc1ccc(NC(=O)CN2CCCC2c2cccn2C)c(Br)c1 (centres undefined)	-1%	1.7%	-2.1	nt	0%	nt	7.2%
O=C(O)c1cccc(Nc2cc(Cl)c3nonc3c2[N+](=O)[O-])c1	-3%	1.9%	?	-65%	18%	-2.7	0.9%
Cc1ccc(C)c(-c2cc(C(=O)Nc3sc(C)c(C)c3C(N)=O)c3ccccc3n2)c1	2%	-0.6%	-1.0	8%	2%	1.5	0.0%[38.3 µM]
CC1(Oc2ccc(Cl)cc2)CCN(Cc2cccn2-c2nccs2)C1 (centres undefined)	nt	-1.1%	-4.5	nt	nt	nt	5.4%
CCOC(=O)c1c(C)sc2c1N(C(=O)CN1CCOCC1)c1cc(Cl)ccc1S2	-15%	-5.1%	4.2	7%	8%	2.7	1.5%
Cc1ccc(S(=O)(=O)c2nc(Nc3nccs3)sc2Cl)cc1	-26%	4.7%	-0.2	9%	11%	6.1	-0.6%
CCOCCCNC(=O)CCn1nc(-c2ccc(Cl)cc2)ccc1=O	4%	?	-3.7	9%	?	-2.2	-1.3%
CCN1C(=O)[C@@H]2[C@@H](c3ccc(-c4ccc(OC)cc4)cc3)N3CCCC[C@@]3(C(=O)OC)[C@@H]2C1=O	0%	-16%	-1.6	nt	nt	nt	1.4%

Another view of 4 compounds above.
Every second line gives: gsp antagonist | ClpP mod | D2 ag | Sfp PPTase inh | gsp ag | Menin-MLL FL inh | PINK1 expr mod
Cc1ccccc1NC(=O)CSc1ccc2nnc(-c3ccccn3)n2n1
    -1% | -8.3% | -18 | 11% | 19% | nt | 1.0%
CN(C)CCN1C(=O)c2oc3ccccc3c(=O)c2C1c1ccc(F)cc1 (centres undefined)
    -15% | -0.8% | -1.8 | 9% | ? | 1.0 | 4.9%[38.3 µM]
Cc1ccc(NC(=O)CN2CCCC2c2cccn2C)c(Br)c1 (centres undefined)
    -1% | 1.7% | -2.1 | nt | 0% | nt | 7.2%
O=C(O)c1cccc(Nc2cc(Cl)c3nonc3c2[N+](=O)[O-])c1
    -3% | 1.9% | ? | -65% | 18% | -2.7 | 0.9%

Further compounds follow:
SMILES	gsp antagonist	ClpP mod	D2 ag	Sfp PPTase inh	gsp ag	Menin-MLL FL inh	PINK1 expr mod
Cc1nc2cnc(OCc3ccccc3)nc2n(C)c1=O	nt	nt	nt	22%	nt	1.5	0.2%
COc1ccccc1N(CC(=O)N(c1ccccc1)C(C)C)S(=O)(=O)c1cccs1	-20%	nt	5.0	8%	-6%[15.4 µM]	0.0	0.6%
COCOc1ccc(-c2ncc(OCCN3CCCC3=O)nc2NC(=O)c2cc3ccccc3s2)cc1	nt	-1.6%	-1.8	nt	nt	nt	0.7%
COc1cccc(-c2cnc(C(O)c3cc(C)ccc3C)[nH]2)c1 (centres undefined)	nt	-1.7%	6.0	nt	nt	nt	0.2%
O=C1N/C(=N/c2ccccn2)SC1Cc1ccccc1 (centres undefined)	14%	7.1%	4.6	-13%	1%	-4.9	nt
COc1ccc(C(=O)CCS(=O)(=O)c2ccc(C)cc2)cc1	1%	-1.6%	-3.5	-3%	-28%	1.5	0.1%
Cc1nn(Cc2ccc(F)cc2)c2sc(C(=O)Nc3ccccc3N3CCOCC3)cc12	1%	-5.6%	-1.6	-1%	-1%	3.8	3.7%
CC(C)OCCCNC(=O)COCC(=O)Nc1ccc(OCCc2ccccc2)cc1	1%	1.6%	-4.7	7%	0%	0.4	0.5%
Cc1ccsc1C(=O)OCC(=O)NC1CCCC(C)C1C (centres undefined)	2%	-1.3%	0.6	nt	-1%	nt	-0.2%
N#Cc1ccc(NC(=O)NN2CCCCCC2)cc1	-12%	?	2.2	nt	-8%[15.4 µM]	nt	?
CCc1ccc(NC(=S)N2CCN(c3cccc(OC)c3)CC2)cc1	5%	0.8%	3.1	17%	-8%	-3.9	5.1%
COc1ccc(C2/C(=C(/O)c3ccc4c(c3)CC(C)O4)C(=O)C(=O)N2Cc2cccnc2)cc1 (centres undefined)	23%	-0.3%	1.6	6%	?	nt	-1.0%
Nc1ccn([C@@H]2O[C@H](C(=O)N3CCSC3)[C@@H](O)[C@H]2O)c(=O)n1	nt	0.5%	5.9	nt	nt	nt	1.1%
CC(C)/C=C/C(=O)N1CCCC(N2CCN(c3ccccc3F)CC2)C1 (centres undefined)	-15%	0.2%	-2.4	1%	1%	-6.4	-1.1%
CC1=NN(C(N)=S)C(=O)C1N=Nc1cccc(Cl)c1 (centres undefined)	-21%	1.0%	-6.8	4%	0%	-0.1	1.1%
COc1ccccc1CNc1ncnc2c1nnn2Cc1ccccc1	-5%	-1.1%	-1.9	5%	12%	-0.2	-1.8%
N#C/C(=C\c1ccccc1)C(=O)NNS(=O)(=O)c1ccc(Br)cc1	-10%	-0.5%	1.1	nt	16%[15.4 µM]	nt	0.5%
C/C(=N\O)c1ccn(S(=O)(=O)c2ccc(Cl)cc2)c1	13%	0.3%	-7.8	8%	23%	4.0	-1.0%
COc1ccc2cc(C(=O)C3CCCN(C(=O)c4cncs4)C3)ccc2c1 (centres undefined)	?	18%	-1.6	8%	-7%	nt	1.6%
N#C/C(=C\c1ccccc1)C(=O)N(c1ccccn1)C1CCCCC1	7%	-1.2%	-3.6	-4%	-43%[inhibitor]	nt	-0.4%
Cc1ccc(S(=O)(=O)N2CCN(C(=O)CN3CCCCC3)C2C(C)C)cc1 (centres undefined)	-1%	-0.6%	0.1	15%	-39%[inhibitor]	0.3	-5.3%[38.3 µM]
COc1ccccc1CNc1ncncc1-c1cccnc1	nt	nt	nt	-10%	nt	1.4	-0.6%
Cc1nc2c(-c3ccc(F)cc3)c(C)nn2c(C)c1CCC(=O)N1CCC(Cc2ccccc2)CC1	-19%	-23%	-7.1	-5%	-48%[inhibitor]	0.9	2.7%
CCN(CC)S(=O)(=O)c1ccc(N2CCOCC2)c(NC(=O)C2CSC3(C)CCC(=O)N23)c1 (centres undefined)	-4%	-2.0%	-2.7	2%	-3%	0.1	1.2%
CCC1=C(OC(=O)N(CC)CC)N2C(=O)OC(=NCC3CC3)[C@]2(C)[C@H]2C1=CC[C@H]1C(=O)NC(=O)[C@H]12	8%	-2.5%	-3.8	15%&15%	nt	2.4&2.9	-1.7%
Cc1ccc(S(=O)(=O)N2CCN(CC(=O)N/N=C\c3cccnc3)CC2)cc1	13%	1.9%	-4.8	13%	17%	0.0	1.9%
Cc1nn(-c2ccccc2)c(Cl)c1/C=N/NC(=O)c1nn(C)cc1[N+](=O)[O-]	-3%	1.5%	3.6	-3%	26%	nt	-1.2%
CC(=O)N1CCC(N(CCCOC(C)C)C(=O)Nc2ccc(Cl)cc2)CC1	1%	3.3%	-1.3	nt	-3%	nt	0.6%
COc1ccc(NC(=S)Nc2ccc(F)cc2)cc1	7%	2.0%	0.1	-10%	-38%[inhibitor]	0.4	2.1%
Cc1ccc(NC(=O)C2CCN(S(C)(=O)=O)CC2)c(C)c1	-1%	0.6%	-5.1	20%	0%	0.0	0.5%
CCCc1c(C(=O)N/N=C/c2cccc(OCc3ccc(F)cc3)c2)nnn1-c1nonc1N	2%	-1.0%	0.3	11%	?	1.7	0.0%
Cc1[nH]n(-c2ccccc2)c(=O)c1N=Nc1ccc(C(N)=O)cc1	4%	0.3%	-2.2	5%	-4%[15.4 µM]	-5.0	11%
Cc1cc(C)n(C(=O)c2ccc(C)c(S(=O)(=O)N3CCCC3)c2)n1	8%	1.0%	-2.8	14%	?	2.1	0.3%
CCOc1ccc(-c2[nH]ncc2-c2csc(C)n2)c(O)c1	3%	nt	-0.5	7%	7%	5.1	2.1%
COC(=O)CSc1nnc(CCc2nc3ccccc3[nH]2)n1C	4%	1.1%	-0.3	-5%	0%	-2.9	-0.2%
COC(=O)c1ccc(CNC(=O)C2CCC(=O)N(Cc3cccc(F)c3)C2)cc1 (centres undefined)	-2%	-1.2%	-1.6	21%	-30%[inhibitor]	nt	-0.7%
CC(C)=NOc1cc(NC(=O)CCl)cc([N+](=O)[O-])c1	-19%	0.0%	-6.4	-21%	-12%	-6.8	-1.5%
CCCN(CCC)C(=O)C1CCCN1S(=O)(=O)c1cccc2nsnc12 (centres undefined)	0%	2.0%	-0.8	1%	12%	5.0	-0.6%
O=C(NCCc1cccc(C(F)(F)F)c1)C1CCC(=O)N(CCc2cccc(F)c2)C1 (centres undefined)	-7%	1.0%	-3.0	7%	36%	2.0	-2.1%
COc1ccc2c(c1)c1nc3n(c(=O)c1n2CC(=O)Nc1ccccc1)CCS3	0%	4.1%	-3.8	1%	?	nt	3.5%
CC(O)c1cccc(NC(=O)Nc2cccc(NC(=O)Nc3cccc(C(C)O)c3)c2)c1 (centres undefined)	5%	-0.9%	3.0	9%	3%	6.0	0.0%
COc1ccc(CNCCC2(O)CC(C)N(C)CC2C)cc1OC (centres undefined)	15%	nt	-2.3	15%	-40%[inhibitor]	-2.4	0.3%
Cc1cccc(NC(=O)c2cccc(NC(=O)c3ccccc3)c2)n1	-17%	nt	2.3	7%	-15%	-0.3	4.4%

Assay outcomes deposited in PubChem by National Center for Advancing Translational Sciences (NCATS).

Outcome played no part in choosing rows; 5.1% or so of the library scored in one or more.
